A1 inh = inhibitors of the anti-apoptotic protein A1, read as caspase activation. AID 2462. caspase activation, % (no concentration beside the values). 330,000 compounds, 0.066% hits. MEF A1-2A-BIM cells, Caspase-Glo 3/7 luminescence, 3 h; percent of clofoctol response, vehicle zero;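 active = over half of replicate activation scores above 10%, or exactly half above 10 with the replicate mean above 10; inconclusive = replicate mean below 10 yet half the replicates above 10; inactive = over half of replicates below 10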;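 also: wells of about 30 µL received 50 nL stock; many hits fall short of the cut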
Ecoli growth = blocks Escherichia coli growth; OD600, 23 h; hits give low values; OD600 absorbance (test concentration not listed); 330,000 compounds, 0.21% hits;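 active = OD600 absorbance below the run mean of sample wells minus 3.6 SD, in any replicate, cut at about 0.56 in these data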;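 also: stock transfer was 300 nL into about 60 µL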
FGF22 binding = shifts melting point of recombinant human FGF22; calls only at 9.99 µM; recombinant FGF22 thermal shift, SYPRO orange fluorescence; percent of sucrose octasulfate shift, DMSO zero; 340,000 compounds, 1.5% hits; Q9HCT0;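 active = melting point raised past a set limit in the mean and every replicate; inconclusive = no clear call; three in four hits are not shown here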
Target sequence (Q9HCT0 whole entry, looked up): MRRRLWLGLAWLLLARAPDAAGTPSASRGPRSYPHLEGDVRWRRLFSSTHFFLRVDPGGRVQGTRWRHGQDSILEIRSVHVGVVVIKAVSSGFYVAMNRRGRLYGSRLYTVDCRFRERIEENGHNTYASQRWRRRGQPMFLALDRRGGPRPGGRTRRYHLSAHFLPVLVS
rRNA inh HTS = selective bacterial rRNA inhibition in E. coli | E. coli WT GFP vs humanized-ribosome RFP mutants, fluorescence, 24 h; hits give low values; DMSO median 0, no signal -100 | GFP signal change (wild-type ribosome), % (test concentration not listed) | 350,000 compounds, 1.6% hits;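 active = significant combined selectivity score with lowered wild-type GFP, culture density cut under 30%, mutant RFP and density less affected; inactive = any of these conditions unmet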; also: one replicate is shown; some compounds called inactive have numbers as strong as hits
Beta apoptosis = beta cell apoptosis inhibition; INS-1E cytokine-induced death, ATP luminescence, 48 h; percent of positive-control rescue, neutral wells zero; protection from apoptosis, % (test concentration not listed); 300,000 compounds, 0.8% hits;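 active = all replicates at 75% or more, or half of them and the mean; inconclusive = half reach 75% but not the mean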;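 also: 0% = cytokine-treated negative control wells and 100% = positive control rescue; higher means more ATP so stronger rescue from cytokine killing; wells of about 40 µL received 100 nL stock; the first replicate is given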
UCH37 inh = inhibitors of human deubiquitinating enzyme UCH37; Q9Y5K5; purified proteasome/UCH37, Ub-AMC cleavage fluorescence; inhibition, % (test concentration not listed); 330,000 compounds, 0.33% hits; AID 588478;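 active = mean of two replicates above 20%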;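 also: 0% = compound-free wells with enzyme and 100% = wells lacking proteasome; stock transfer was 100 nL into about 20 µL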
Target sequence (Q9Y5K5 whole entry, looked up): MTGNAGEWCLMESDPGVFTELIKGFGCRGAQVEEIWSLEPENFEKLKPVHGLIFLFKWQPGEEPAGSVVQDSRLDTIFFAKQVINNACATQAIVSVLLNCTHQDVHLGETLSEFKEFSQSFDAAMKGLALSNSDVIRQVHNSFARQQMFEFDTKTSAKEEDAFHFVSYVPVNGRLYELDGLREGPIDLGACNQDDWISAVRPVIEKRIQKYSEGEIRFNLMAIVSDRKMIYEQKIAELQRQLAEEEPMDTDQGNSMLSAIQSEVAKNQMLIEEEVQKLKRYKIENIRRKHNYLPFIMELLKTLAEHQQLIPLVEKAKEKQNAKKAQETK
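Assay system: Proteasome-bound UCH37. Buffer or medium: pH 7.4 Tris-HCl (50 mM) with ovalbumin, ATP-MgCl2, DTT. Incubation: 30 min preincubation with enzyme, 25 min cleavage at room temperature. Measured by: fluorescence, ex 355 nm, em 460 nm. Read-out basis: percent inhibition. Control set: wells without proteasome as full block, compound-free enzyme plus substrate as uninhibited.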
T cruzi inh = blocks replication of Trypanosoma cruzi | inhibition, % (concentration not given with the values) | 300,000 compounds, 1.4% hits | T. cruzi beta-gal in NIH3T3, luminescence, 90 h;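 active = mean inhibition across valid replicates above about 55%, limit read from the data; inconclusive = mean below that limit but half or more replicates reach it; inactive = mean below it, under half of replicates reach it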;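 also: signal also drops with host cell toxicity which is not excluded here; 0% = plate median of DMSO wells and 100% = zero luminescence signal; higher percent means less beta-gal luminescence so fewer parasites; stock transfer was 50 nL into about 50 µL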
MLL AF4-AF9 inh = MLL-AF4/AF9 protein interaction inhibition | P42568 | AlphaScreen, biotin-AF4 peptide binding to FLAG-AF9 | inhibition, % at 10 µM | 350,000 compounds, 0.47% hits;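 active = every replicate reaching a set inhibition limit, whatever the replicate mean, cut at about 25% in these data; inconclusive = mean inhibition reaches that limit but some replicates miss it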;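 also: 0% = plate neutral control median and 100% = total signal loss; the record names both 10 and 1 µM as test concentration; the first replicate is given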
Target sequence (P42568 whole entry, looked up): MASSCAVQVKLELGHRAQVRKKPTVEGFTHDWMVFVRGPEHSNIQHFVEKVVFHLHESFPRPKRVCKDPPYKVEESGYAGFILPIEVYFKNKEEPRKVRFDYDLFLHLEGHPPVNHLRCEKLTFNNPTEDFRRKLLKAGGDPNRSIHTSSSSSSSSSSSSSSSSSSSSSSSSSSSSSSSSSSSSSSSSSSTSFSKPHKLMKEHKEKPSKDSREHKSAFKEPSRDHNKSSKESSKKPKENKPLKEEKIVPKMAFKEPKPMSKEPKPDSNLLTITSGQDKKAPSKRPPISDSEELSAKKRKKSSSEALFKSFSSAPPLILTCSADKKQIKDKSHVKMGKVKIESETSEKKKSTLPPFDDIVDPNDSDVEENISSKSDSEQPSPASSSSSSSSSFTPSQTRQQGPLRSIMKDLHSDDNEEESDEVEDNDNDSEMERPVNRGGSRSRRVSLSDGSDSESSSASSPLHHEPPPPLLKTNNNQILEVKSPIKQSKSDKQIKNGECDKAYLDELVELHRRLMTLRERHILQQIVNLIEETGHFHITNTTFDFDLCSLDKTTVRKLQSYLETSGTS
rRNA inh HTS OD600 = also measured in rRNA inh HTS; calls as there; OD600 change, %; measured here: OD600 growth;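 optical density of the mix in the first replicate; 0 = DMSO median and -100 = no signal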
rRNA inh HTS RFP = further read-out of rRNA inh HTS, marked with its call; RFP signal change, %; measured here: RFP humanized mutant strains;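 first replicate; 0 = DMSO median and -100 = no signal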
The depositor's hits bear a star; i = inactive; ? = inconclusive; . = not tested or not shown. The list is partial (hit frequency here may not be typical).

Molecule,A1 inh,Ecoli growth,FGF22 binding,rRNA inh HTS,rRNA inh HTS OD600,rRNA inh HTS RFP,Beta apoptosis,UCH37 inh,T cruzi inh,MLL AF4-AF9 inh
O=C(O)c1cccc(NC(=S)N/N=C/c2cccnc2)c1,-0.6,.,i,18,12,1.8,-8,.,-2,-9.3
COc1ccc(Cl)cc1NC(=O)CN(C)C1CCCCC1,0.6,0.7,.,.,.,.,1,1.5,16,.
CCCCNC(=S)N(CCN(CC)CC)Cc1cc2cc3c(cc2[nH]c1=O)OCCO3,0.0,0.67,i,8,5,2.5,-7,-110,15,-0.3
CCOc1cccc(N2C(=O)CC(n3cnc4ccccc43)C2=O)c1 (centres undefined),0.2,0.74,.,.,.,.,1,1.6,-7,.
CC1CCC(C(C)C)C(OCC[N+](C)(C)C)C1 (centres undefined),0.1,.,i,10,8,10.0,2,.,-10,-21
Clc1ccc(Cn2cccc2C2=NCCO2)cc1,-0.3,0.72,.,.,.,.,-6,2.5,6,.
Cc1ccc(OCC(O)CN2CCC(Cc3ccccc3)CC2)c(C)c1 (centres undefined),-1.6,0.61,i,-41,-59,11,.,1.8,35,4.0
CCC(C)[C@H](NC(=O)N1CCCC1)C(=O)OC (some centres undefined),-0.9,0.74,i,7,-3,-11,-4,5.1,17,-89
CCOc1ccc(OCc2ccc(C(=O)NN=Cc3ccc[nH]3)cc2)cc1,9.7*,0.66,i,11,18,-3.4,123*,-7.4,.,-2.1
O=C(CSc1cccs1)NCCc1ccccc1,0.1,0.71,i,10,3,0.1,1,-1.5,6,-2.9
COc1ccc(C(=O)C2CCN(CC(=O)NCc3ccccc3)CC2)cc1,0.3,0.68,i,1,-8,-1.5,0,1.4,17,-0.1
CCC(C)(C(=O)NC1CCCC1)N(CC1CCCO1)C(=O)CNC(=O)c1ccccc1 (centres undefined),0.2,0.75,.,.,.,.,-2,1.5,-8,.
CN(C)N=Nc1ccc(S(=O)(=O)NC(=O)Cc2ccccc2)cc1,0.0,0.66,i,-3,6,3.1,-10,6.9,3,-5.1
Cc1oc(-c2ccc(Cl)cc2)nc1CS(=O)CC(=O)NCc1ccc2c(c1)OCO2 (centres undefined),.,0.68,i,3,4,3.3,-6,1.1,1,-10
COc1cccc(N2CCN(C(=O)C3CCCN(S(=O)(=O)c4cnc[nH]4)C3)CC2)c1 (centres undefined),-0.2,0.68,i,3,-2,20,0,4.8,-5,?
CC(CN1CCCCCC1)C(=O)NN (centres undefined),0.5,0.7,.,7,5,-4.5,-3,2.8,-6,8.2
COCCN(C(=O)Cc1cccs1)c1nnc(-c2ccncc2)s1,-0.2,0.68,.,.,.,.,.,-2.6,-8,.
Cc1cc(C(=O)NNC(=O)c2ccc(Cl)cc2Cl)c(C)o1,-0.2,0.63,.,5,6,-1.6,.,1.1,-7,-0.9
CC(C)NC(=S)NC(=O)c1ccc(-c2ccccc2)cc1,-3.2,0.71,i,.,.,.,29,-0.5,18,1.6
CCOc1cc(/C=C2/C(=N)N3C(=NC2=O)SN=C3S(C)(=O)=O)ccc1OC(=O)c1ccco1,-2.0,0.68,.,.,.,.,3,7.3,-4,.
CCOC(=O)C1CCCN(C(=O)CNC(=O)Cn2ccc3ccccc3c2=O)C1 (centres undefined),?,0.69,.,.,.,.,-8,-0.1,.,.
COC(=O)c1ccc(CSc2nc(N3CCOCC3)c3c(c2C#N)CC(C)(C)OC3)o1,-1.5,0.69,.,.,.,.,11,-0.5,12,.
CCN(CC)S(=O)(=O)c1ccc(C(=O)C(C#N)c2ccccn2)cc1 (centres undefined),0.2,0.7,i,-2,-1,-0.9,.,5.7,1,-48
O=S(=O)(c1cccc(-c2nnco2)c1)N1CCOCC1,-0.5,0.73,i,14,4,1.3,-3,-0.4,-3,-0.9
CC/C(C)=N/Nc1nc(-c2cc3cccc(OC)c3oc2=O)cs1,-5.8,.,i,-16,-8,-1.0,15,.,.,.
Cc1ccc(C)c(N2CCN(C(=S)NC3CCCCC3)CC2)c1,-0.1,0.72,i,.,.,.,-7,3.3,-15,0.7
COc1ccc(N=C2C(=Nc3ccc(OC)cc3)N(c3ccc(OC)cc3)C(=S)N2C(=O)c2ccc(OC)cc2)cc1,-0.8,0.7,.,.,.,.,3,9.5,0,.
CC1(C)Cc2c(C#N)c(NCCN3CCOCC3)nc(-c3ccccc3)c2CO1,-0.9,0.65,i,-6,-1,-5.7,-2,-14,3,5.2
Cc1cc(C(=O)Nc2cccnc2)on1,0.2,0.72,i,10,12,0.4,2,4.0,-8,-1.4
Nc1c(C(=O)NC23CC4CC(CC(C4)C2)C3)sc2nc3c(c(C(F)(F)F)c12)CCC3,-0.4,0.71,.,5,9,-2.5,-2,-25,26,.
COc1ccc(C(=O)N2CCN(c3ccc(NC(=O)Cc4ccccc4)cc3)CC2)cc1,0.3,.,i,0,6,-0.4,8,.,-2,0.5
Cc1ccc(CNc2ccccc2C(=O)O)s1,-0.4,0.69,i,15,12,2.8,-4,-79,4,-1.2
O=C(O)c1ccc2c(c1)C1C=CCC1C(c1cc3c(cc1Br)OCO3)N2 (centres undefined),0.6,0.63,i,-48,-66,-18,3,1.1,2,-0.4
CN(CCCNC(=O)CCCOc1cc(=O)n(C)c2ccccc12)Cc1ccccc1,0.1,0.73,i,12,18,2.8,-5,3.8,71*,-1.5
COC(=O)[C@@H]1CCCN1C(=O)CCc1nnc(CCc2c[nH]c3ccccc23)o1,0.5,0.66,i,17,10,-0.4,1,0.1,-19,-0.2
CC(C)Cc1nc(Nc2ccc(S(=O)(=O)N3CCCC3)cc2)c2nnn(Cc3ccccc3)c2n1,0.0,0.74,.,.,.,.,19,-50,30,.
Cc1ccc(CNC(=O)c2cc(COc3c(F)cccc3F)on2)s1,-0.6,0.67,i,-15,-21,-7.0,4,3.0,3,-2.4
Cc1ccc(S(=O)(=O)N2CCC(C(=O)N[C@@H](C)C(=O)NCCc3ccccc3)CC2)cc1,0.3,0.73,.,-1,-3,0.2,-7,-1.4,.,.
Cc1cc(C)cc(OCC(=O)Nc2ccc(N3CCN(S(C)(=O)=O)CC3)cc2)c1,-0.1,0.74,.,.,.,.,1,4.0,1,.
COc1ccc(C2CC(=O)c3ccccc3O2)cc1 (centres undefined),-1.7,0.66,i,-37,-46,-0.9,0,-0.9,-32,-0.8
O=c1[nH]ncc2c3ccccc3n(Cc3ccccc3F)c12,0.0,0.69,.,.,.,.,-4,0.4,15,.
O=C(CSc1nnc(NC(=O)C2CC(=O)N(c3ccc(F)cc3)C2)s1)NCc1ccco1 (centres undefined),0.6,.,i,10,7,1.3,.,.,-4,-0.9
CN(C)S(=O)(=O)c1cccc(COC(=O)c2cc([N+](=O)[O-])ccc2N2CCOCC2)c1,-0.1,0.65,i,7,-5,0.4,6,5.7,16,5.3
c1ccc(-c2nc(-c3ccco3)cs2)nc1,-0.3,0.69,.,.,.,.,-3,-39,-8,.
CCOc1ccc(NS(=O)(=O)c2ccc(OC)c(C)c2)cc1,0.0,0.68,.,.,.,.,2,0.3,-9,.

Quoted at random: three entries already listed.
Molecule,A1 inh,Ecoli growth,FGF22 binding,rRNA inh HTS,rRNA inh HTS OD600,rRNA inh HTS RFP,Beta apoptosis,UCH37 inh,T cruzi inh,MLL AF4-AF9 inh
COc1ccc(C2CC(=O)c3ccccc3O2)cc1 (centres undefined),-1.7,0.66,i,-37,-46,-0.9,0,-0.9,-32,-0.8
CC(C)Cc1nc(Nc2ccc(S(=O)(=O)N3CCCC3)cc2)c2nnn(Cc3ccccc3)c2n1,0.0,0.74,.,.,.,.,19,-50,30,.
Cc1ccc(S(=O)(=O)N2CCC(C(=O)N[C@@H](C)C(=O)NCCc3ccccc3)CC2)cc1,0.3,0.73,.,-1,-3,0.2,-7,-1.4,.,.

Going on with the list.
Molecule,A1 inh,Ecoli growth,FGF22 binding,rRNA inh HTS,rRNA inh HTS OD600,rRNA inh HTS RFP,Beta apoptosis,UCH37 inh,T cruzi inh,MLL AF4-AF9 inh
Cc1cc(C)c(C)c(S(=O)(=O)N2CCSCC2)c1C,-0.3,0.69,i,-12,-10,-5.6,-3,2.0,6,-0.5
Cc1nn(CC(=O)OCC(=O)c2ccccc2)c(C)c1[N+](=O)[O-],0.8,0.68,i,8,13,2.4,2,4.3,.,-1.0
Cc1ccccc1-c1nc(CS(=O)(=O)CC(=O)NCc2ccccc2)c(C)o1,-0.2,0.66,i,-43,-70,-9.5,-8,2.1,-8,9.6
CC(=O)c1ccc(S(=O)(=O)Nc2ccccc2C(=O)NC2CC2)cc1,-0.1,0.7,i,4,3,1.3,-1,4.8,.,-0.6
CCOc1ccccc1C(=O)Nc1ccc2c(c1)C(=O)NC2=O,1.5,0.7,i,22,9,4.0,-4,-46,-8,3.3
Cc1nn(CC(O)c2ccccc2)c(C)c1Br (centres undefined),-0.1,0.74,.,.,.,.,-3,0.2,9,.
O=C(NNC(=O)C1C2CCC(C2)C1C(=O)O)c1ccc(Cl)cc1 (centres undefined),0.3,0.67,i,2,4,-0.5,-5,0.1,-4,1.5
CC(CCc1ccccc1)NCC(O)COc1ccccc1 (centres undefined),1.6,0.63,i,7,0,1.4,-4,4.7,-1,-0.8
O=C(NCCNC(=O)c1cc(OCC(F)(F)F)ccc1OCC(F)(F)F)Nc1ccccc1,0.6,0.74,.,.,.,.,2,1.1,5,.
COCCCN1C(=O)c2[nH]nc(-c3ccccc3O)c2C1c1cccc(Cl)c1 (centres undefined),0.1,0.72,.,.,.,.,19,1.2,1,.
CCOc1ccccc1N(CC(=O)N1CCCCCC1)S(C)(=O)=O,0.1,0.68,.,.,.,.,-3,-0.5,0,.
COc1cccc(NC(=O)C(c2ccccc2)N2CCN(CC(=O)N3CCOCC3)CC2)c1 (centres undefined),-1.1,0.69,i,.,.,.,-3,1.6,.,-4.9
CN1C(=O)CC(N2CCC(C(N)=O)CC2)C1=O (centres undefined),0.1,0.75,.,20,21,-0.8,1,2.5,-12,.
CCOc1ccc(CN2CCNC(=O)C2CC(=O)O)cc1 (centres undefined),0.3,0.65,i,11,1,0.7,-11,2.1,-14,-1.4
CCNC(=S)N(Cc1cc2cc(C)cc(C)c2[nH]c1=O)C1CCCC1,1.1,0.7,.,.,.,.,1,-12,12,.
O=S(=O)(c1ccc(F)c(F)c1)N1CCN(CCc2ccccc2)CC1,0.9,0.66,i,-9,-5,2.9,-3,2.2,2,-7.3

Quoted from the listing:
A1 inh, Cc1nn(CC(O)c2ccccc2)c(C)c1Br (centres undefined) → -0.1
Ecoli growth, CCNC(=S)N(Cc1cc2cc(C)cc(C)c2[nH]c1=O)C1CCCC1 → 0.7
